Compound activity from PubChem BioAssay.
VDR inhibitor = blocks the human vitamin D receptor. P11473. VDR-SRC2-3 peptide fluorescence polarization, 2 h. Potency, µM, without a hit: max response, negative = inhibition, actives largely listed as inhibitors. actives 0.93% (n = 400,000). AID 504847; active = well fitted inhibition curve with a large enough effect; inconclusive = small, poorly fitted or top-dose-only effect, or another doubt; inactive = no such curve, though single readings can be large or run the other way; also: series mostly up to about 120 µM
Target sequence (P11473 whole entry, looked up): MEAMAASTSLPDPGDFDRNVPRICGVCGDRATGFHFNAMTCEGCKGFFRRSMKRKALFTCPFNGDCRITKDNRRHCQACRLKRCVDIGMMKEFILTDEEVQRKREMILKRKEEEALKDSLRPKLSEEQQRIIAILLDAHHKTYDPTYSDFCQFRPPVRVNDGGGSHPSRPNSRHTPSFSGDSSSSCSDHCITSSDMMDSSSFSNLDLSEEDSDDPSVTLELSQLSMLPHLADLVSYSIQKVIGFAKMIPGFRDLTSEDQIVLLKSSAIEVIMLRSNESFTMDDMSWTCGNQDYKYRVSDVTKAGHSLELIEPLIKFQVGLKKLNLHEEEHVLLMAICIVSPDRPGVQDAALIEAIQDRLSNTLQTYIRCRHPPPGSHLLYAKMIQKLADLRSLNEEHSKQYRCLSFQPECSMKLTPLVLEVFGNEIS
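Compounds are added to VDR with labelled SRC2-3 coactivator peptide and held 2 h at room temperature. Inhibition of the VDR–peptide interaction is then read as a change in fluorescence polarization.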
* = called active by the depositor; ? = inconclusive; & = joins results of further samples. % is scaled to controls: 0 for no effect and ±100 for the full control effect; potency is read from the fitted curve at half-maximal effect. The list is partial; the hit share may differ from the screen's.

VDR inhibitor	SMILES
-19%	NC(=O)CC[C@@H]1NC(=O)[C@H](Cc2ccc(O)cc2)NC(=O)c2cc([N+](=O)[O-])cc(F)c2OCC[C@@H](C(N)=O)NC1=O
-2%&-4%&4%&7%&3%	CC(C)NC[C@H](O)COc1ccc(CC(N)=O)cc1
-10%	CCOC(=O)C1CCCN(C(=O)COc2ccc(N(C)S(=O)(=O)c3ccc(F)cc3)cc2)C1 (stereo not given)
6%	COc1cc(CNc2ccccc2SC)cc(OC)c1OC
-4%&-14%	COc1ccccc1[C@@H]1C(c2cccc(C)c2)=NN(c2ccccc2)[C@H]1C(=O)N1CCOC1=O
-3%	O/N=C/c1ccccc1OCc1ccccc1F
3%	Cc1ccc(C)c(OCc2nc3ccccc3n2C)c1
-14%	CN(Cc1cc(=O)[nH]c2ccccc12)C(=O)c1ccccc1
2%	COc1ccc(NC(=O)c2ccc(C)cc2)c[n+]1[O-]
-11%	Cn1c(N)c(C(=O)COC(=O)Cc2cccc(C(F)(F)F)c2)c(=O)n(C)c1=O
6%	O=C(O)CSc1nc2ccccc2n1-c1ccccc1
-4%	O=C(NNC(=O)c1ccc(O)cc1O)c1ccc(Cl)cc1
-5%	CCSc1nc2c(c(=O)[nH]c(=O)n2C)n1C/C=C(/C)Cl
-15%&12%	CCOc1ccc(C(=O)COC(=O)CNC(=O)C2CCCCC2)cc1
-13%	COc1cc(OC)cc(C(=O)NC(=S)Nc2nc(-c3cc4ccccc4o3)cs2)c1
18%	Cc1cccc2c1cnn2C(=O)Nc1cc(F)ccc1F
6%	CCc1ccccc1NC(=O)c1nc(-c2ccncc2)no1
-6%	COc1ccc(Cl)cc1N(CC(=O)NC(C)(C)C)S(=O)(=O)c1ccc(C)c([N+](=O)[O-])c1
-16%	CC(=O)NC(c1cccs1)c1cc(F)c2cccnc2c1O (stereo not given)
-11%	CC(C)[C@@H](CC(=O)N[C@@H]1CCCC[C@H]1C(=O)N[C@H](CC(=O)N[C@@H](CCC(=O)O)CC(=O)O)Cc1ccccc1)NC(=O)C[C@H](Cc1ccccc1)NC(=O)[C@@H]1CNCC[C@H]1N
6%	COc1ccc(C(CC(=O)c2ccccc2)CC(=O)c2ccccc2)cc1OC
10%	COc1cc(C(=S)N2CCOCC2)ccc1OC(=O)c1ccccc1[N+](=O)[O-]
3%	O=C(CCS(=O)(=O)c1ccc(Br)s1)NC1CCCCCC1
-7%	CC(C)OC(=O)c1c(NC(=O)Cn2cnc([N+](=O)[O-])n2)sc2c1CCCC2
4%	Cc1ccc(CNC(=O)CC(C)S(=O)(=O)c2ccc3c(c2)NC(=O)C(C)S3)cc1 (stereo not given)
1%	Cc1cc(C(=O)NC2CCN(Cc3ccccc3)CC2)n[nH]1
9%	CC(=O)Nc1ccccc1-c1nc2ccccc2n(CC(=O)c2ccc(Br)cc2)c1=O
-1%	COc1ccccc1OCCCn1c(=O)sc2ccccc21
-5%	O=C(NNS(=O)(=O)c1ccccc1)c1sccc1-n1cccc1
-18%	C/C(CC(=O)NC1CCCCCC1)=N\NC(=O)c1cnccn1
-7%	O=C(Cn1cc(C(=O)C2CCCCC2)c2ccccc21)Nc1ccccc1Cl
?	CCNC(=S)NNC(=O)c1cccn(Cc2ccc(Cl)cc2)c1=O
9%	O=C(c1nc2ccccn2c1CNCCCn1nnc2ccccc21)N1CCOCC1
-13%	COc1ccc(C(=O)COC(=O)CN2C(=O)C3C4C=CC(C5CC45)C3C2=O)cc1 (stereo not given)
-6%	Cc1c(C(Nc2ccccn2)c2ccc(Cl)cc2)c(=O)n(-c2ccccc2)n1C (stereo not given)
20%	COc1ccc(C)cc1NC(=O)CC1NCCNC1=O (stereo not given)
-2%	O=C1C2C(c3ccccc3)CC=CC2[C@H](c2ccc(C(F)(F)F)cc2)N1Cc1ccccc1 (stereo not given in full)
-18%	CCOC(=O)c1c(NC(=O)CCC(=O)N(CC)CC)sc2c1CC(C)(C)OC2
-11%	CCS(=O)(=O)N1CCC(C(=O)Oc2ccc(Br)cc2)CC1
-13%	C/C(CC(=O)NC(C)C)=N\NC(=O)C(c1ccccc1)c1ccccc1
-9%	CCCCCC/C=C1\CC(C(=O)OCC)Oc2ccccc21 (stereo not given) (tested in a mixture with another compound)
3%	COc1ccc(NC(=O)c2ccccc2C(=O)N2CCCCC2)cc1
0%	COc1ccc(C(CNC(=O)CNC(=O)c2cccc(C)c2)N2CCOCC2)cc1 (stereo not given)
?	COc1cccc(C2/C(=C(\O)c3ccc4c(c3)OCCO4)C(=O)C(=O)N2CCCn2ccnc2)c1 (stereo not given)
?	COc1cc(-c2noc(C)c2/C=C/c2ccc(C(=O)O)cc2)cc(OC)c1OC
-13%	COC(=O)CCN(Cc1cc(OC)ccc1OC)S(=O)(=O)c1ccccc1Br
-5%	C/C(=N\NC(=O)CCCNc1ccccc1)c1ccncc1
12%	CCOc1ccccc1NC(=O)Nc1ccccc1OCc1cc(=O)n2ccccc2n1
2%	c1ccc2c(c1)ccc1nnc(-c3ccc4c(c3)OCO4)n12
-7%	Cc1ccc(NC(=O)c2ccc(-n3cncn3)c([N+](=O)[O-])c2)cc1F

(more compounds)
VDR inhibitor	SMILES
8%	O=C(O)C1CCN(C(=O)CCN2C(=O)S/C(=C\c3ccccc3)C2=O)CC1
7%	O=C(O)C(Cc1ccccc1)NC(=O)C(c1ccccc1)c1ccccc1 (stereo not given)
4%	CCOC(=O)c1cnc(-c2ccccc2)[nH]c1=O
12%	COc1ccc(CNC(=O)N2CCN(c3ccccc3)CC2)cc1
2%	CC1CCCC(C)N1C(=O)COc1ccc(C(=O)Nc2ccccc2N2CCOCC2)cc1 (stereo not given)
23%	O=C(COC(=O)c1ccc(NS(=O)(=O)c2ccc(F)c(F)c2)cc1)NCC1CCCO1 (stereo not given)
-19%	Cc1c(/C=N/NC(=O)c2cccnc2)cc(C#N)n1C
?	CCOc1ccc(S(=O)(=O)Nc2cccc(C(=O)NCC(c3ccc(OC)cc3)N3CCOCC3)c2)cc1 (stereo not given)
-2%	Cc1ccc(NNC(=O)c2ccno2)c(C)c1
7%	Cc1nc(NC(C)(C)CO)c([N+](=O)[O-])cc1[N+](=O)[O-]
1%	O=C(Nc1ccc(N=Nc2ccccc2)cc1)c1ccccc1Cl
?	O=C(COC(=O)c1cc(S(=O)(=O)N2CCc3ccccc3C2)ccc1Cl)NCc1ccco1
-15%	O=C(c1ccc(F)cc1)c1cn(Cc2ccc(F)cc2)c2cc3c(cc2c1=O)OCCO3
-3%	Cc1ccc(C(=O)c2sc(Nc3ccc(F)cc3)c(C#N)c2N)cc1
-10%	O=C(CN(C(=O)c1csnn1)c1ccc(Br)cc1)NC1CCCCC1
4%	COc1ccc(NC(=O)COc2ccc(/C=C/c3cc[n+](C)cc3)cc2OC)cc1
11%	Cc1ccc(S(=O)(=O)n2ccc(-c3cccc(OCc4c(F)cccc4Cl)c3)n2)cc1
?	Clc1ccccc1/C=N/c1cc(-c2ccccc2)nn1-c1ccccc1
-17%	O=C(O)CCCCCCCCCC[n+]1ccccc1
8%	CC(OC(=O)c1cccc(-n2cnnn2)c1)C(=O)NC1(C#N)CCCCC1 (stereo not given)
-8%	C/C(=N\Nc1ccccn1)c1ccc(C#N)cc1
-15%	CCOC(=O)c1c(C)[nH]c(C(=O)OCC(=O)N2CCN(S(=O)(=O)c3ccc(C)cc3C)CC2)c1C
11%	COc1ccc(-c2cc(C(=O)OC3CCOC3=O)c3ccccc3n2)cc1OC (stereo not given)
-3%	Brc1ccc(CN2CC[C@H]3C=CCc4cccc(c43)C2)cc1
-4%	Cc1noc(C)c1CSCC(=O)Nc1cccc(C(F)(F)F)c1
-19%	O=C(N/N=C/c1coc2ccccc2c1=O)c1cc(Br)ccc1O
10%	COC(=O)c1c(-c2ccc(Cl)cc2)noc1N1CCN(c2cccc(C(F)(F)F)c2)CC1
17%	Cc1ccc2c(CC(=O)Nc3ccc(S(=O)(=O)N4CCC(C)CC4)cc3)coc2c1
-5%	CC(C)c1nc(SCC(=O)NCC2CCCO2)c2c(=O)n(C)c(=O)n(C)c2n1 (stereo not given)
-1%	O=c1ccc2ccc(O[C@@H]3O[C@H](CO[C@@H]4OC[C@](O)(CO)[C@H]4O)[C@@H](O)[C@H](O)[C@H]3O)cc2o1
3%	CCc1cc2c(cc3c(=O)n(CC(=O)N4CCCCC4)nc(CC)n32)s1
8%	COc1ccc(N2CCN(S(=O)(=O)c3cn(C)cn3)CC2)cc1
-9%	O=c1[nH]nc(SCc2ccccc2)c(=O)[nH]1
4%	O=C(Nc1ccccc1C(=O)Nc1ccc(F)cc1)c1ccco1
6%	Cn1cc(NC(=O)c2cc(NC(=O)c3cc(NC=O)cn3C)cn2C)cc1C(=O)NCCC(=N)N
-23%	CC1(c2ccc([N+](=O)[O-])cc2)NC(=O)N(CC(=O)Nc2ccc(N3CCCCC3)cc2)C1=O (stereo not given)
-8%	COC(=O)c1ccccc1NC(=O)CCc1ccccc1
2%	COC(=O)CCCC1=CC2=C(c3ccccc3)C(=O)C(C)(OC(=O)C3CCCC3)C(=O)C2=CN1Cc1ccc(OC)cc1 (stereo not given)
-16%	COc1ccccc1C(CNC(=S)NCc1ccccc1)N1CCCC1 (stereo not given)
-10%	CCOc1ccc(-c2cccc(NS(=O)(=O)c3cc([N+](=O)[O-])ccc3Cl)c2)nn1
-4%	CC(=O)Nc1ccc(N2CCN(C(C)=O)CC2)cc1
-2%	Cc1cnc(NC(=O)C2CCCC2)s1
2%	O=C(O)c1cc2nc(-c3ccc(F)cc3)cc(C(F)(F)F)n2n1
-2%	Cc1ccc(F)c(C2C3C=CCC(c4cccc(-c5ccc(N(C)C)cc5)c4)C3C(=O)N2Cc2ccccc2)c1 (stereo not given)
-18%	CN(C)CCNc1ccc(CO)c2sc3ccc(O)cc3c(=O)c12
-5%	COc1ccc(S(=O)(=O)N2CCCCCC2)cc1C(=O)N(C)CC(=O)Nc1cc(C)ccc1C
?	COc1cccc(CNC(=O)CCNS(=O)(=O)c2ccc3c(c2)CC(C)N3C(C)=O)c1 (stereo not given)
-3%	CC(C)=C1C2CCC1C1C(=O)N(NC(=O)c3ccco3)C(=O)C21 (stereo not given)
-2%	CCOc1ccc(/C=C/C(=O)N(CC)CC(=O)NCc2cccs2)cc1OC
17%	Cc1ccc(NC(=O)NCCCc2ccccc2)cc1

Next section.
VDR inhibitor	SMILES
4%	CCn1c(CSc2nc(C)cc(C)n2)nnc1SCC(=O)Nc1ccccc1
11%	COc1ccccc1NC(=O)C1=C(C)Nc2ncnn2C1c1sccc1C (stereo not given)
9%	O=C(OCc1cc(=O)n2c(n1)sc1ccccc12)c1ccc(O)cc1
-25%	O=S(=O)(NCC(c1cccnc1)N1CCN(c2ccc(F)cc2)CC1)c1cccs1 (stereo not given)
2%	CC(C)(C)NC(=O)CN(c1cccc([N+](=O)[O-])c1)S(=O)(=O)c1ccccc1
2%	Cc1ccc(NC(=S)N(Cc2ccco2)C(C)c2cccs2)cc1 (stereo not given)
-5%	COc1ccc(C(=O)NC2CC2)cc1OC1CCN(Cc2ccccc2F)CC1
-5%	O=S(=O)(Nc1cc(Cl)ccc1N1CCOCC1)c1ccccc1Cl
-3%	CC[C@]12c3[nH]c4cc(-c5ccco5)ccc4c3CCN1C(=O)[C@@H](CC(=O)NCC13CC4CC(CC(C4)C1)C3)C[C@@H]2C(=O)N1CCN(C(=O)C2CC2)CC1
-2%	Cc1nc(N)sc1-c1csc(Nc2ccccn2)n1
-10%	Cc1cc(C)c2nc(Nc3nc(-c4ccccc4)cc(=O)[nH]3)nc(C)c2c1
9%	CCOc1cc(S(=O)(=O)N2CCCC2)c(C)cc1C
0%	Cc1cc(C)n(-c2nc(SCC(=O)Nc3nccs3)c3c4c(sc3n2)COC(C)(C)C4)n1
-2%	Cc1ccccc1CNC(=O)C(=O)NCC(c1ccco1)S(=O)(=O)c1cccs1 (stereo not given)
-10%&-2%	COc1ccc(CNC(=O)CCS(=O)(=O)c2ccc3c(c2)oc(=O)n3C)cc1
-14%	COc1cc(/C=N/NC(=O)c2ccncc2)c([N+](=O)[O-])cc1OC
-13%	Cc1cc(Nc2ccc(Br)cc2F)n2nc(C)nc2n1
-9%	Cc1ccc(-n2c(C)cc(C(=O)CSc3nncs3)c2C)cc1
-6%	COc1ccc(C)cc1NC(=O)C(=O)N/N=C(\C)CC(=O)Nc1cccnc1

Structural class, the entries above with a nitro group on carbon (10)
VDR inhibitor	SMILES
-19%	NC(=O)CC[C@@H]1NC(=O)[C@H](Cc2ccc(O)cc2)NC(=O)c2cc([N+](=O)[O-])cc(F)c2OCC[C@@H](C(N)=O)NC1=O
-6%	COc1ccc(Cl)cc1N(CC(=O)NC(C)(C)C)S(=O)(=O)c1ccc(C)c([N+](=O)[O-])c1
10%	COc1cc(C(=S)N2CCOCC2)ccc1OC(=O)c1ccccc1[N+](=O)[O-]
-7%	CC(C)OC(=O)c1c(NC(=O)Cn2cnc([N+](=O)[O-])n2)sc2c1CCCC2
-7%	Cc1ccc(NC(=O)c2ccc(-n3cncn3)c([N+](=O)[O-])c2)cc1F
7%	Cc1nc(NC(C)(C)CO)c([N+](=O)[O-])cc1[N+](=O)[O-]
-23%	CC1(c2ccc([N+](=O)[O-])cc2)NC(=O)N(CC(=O)Nc2ccc(N3CCCCC3)cc2)C1=O (stereo not given)
-10%	CCOc1ccc(-c2cccc(NS(=O)(=O)c3cc([N+](=O)[O-])ccc3Cl)c2)nn1
2%	CC(C)(C)NC(=O)CN(c1cccc([N+](=O)[O-])c1)S(=O)(=O)c1ccccc1
-14%	COc1cc(/C=N/NC(=O)c2ccncc2)c([N+](=O)[O-])cc1OC

Ordered by heavy-atom count (largest number first): three of the compounds above
VDR inhibitor	SMILES
0%	Cc1cc(C)n(-c2nc(SCC(=O)Nc3nccs3)c3c4c(sc3n2)COC(C)(C)C4)n1
-9%	Cc1ccc(-n2c(C)cc(C(=O)CSc3nncs3)c2C)cc1
-13%	Cc1cc(Nc2ccc(Br)cc2F)n2nc(C)nc2n1
